NPYLR7 ag = activates Aedes aegypti NPYLR7 receptor; HEK293T NPYLR7/Galpha15, GCaMP6s calcium fluorescence; actives 0.15% (n = 270,000); activation, % at 10 µM; in the data active = activation above about 40%;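 also: 0% = vehicle and 100% = reference agonist at the receptor; some compounds past the cut are filed as inactive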
NPYLR7 ag max-min = second read-out of NPYLR7 ag, no call of its own (marks repeat the call); activation, %; measured here: Max-Min RFU normalised activation; some inactives read as strong as hits;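 span of the calcium signal over five minutes; 0% = vehicle and 100% = native peptide agonist; compound fluorescence can raise it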
* hit, by the source's call; & = joins results of further samples.

SMILES | NPYLR7 ag | NPYLR7 ag max-min
CNCCCCNC1CCN(c2ccc(-n3ccnc3)cc2)CC1 | -1 | -3
CCOC(=O)CC1CCCCN1C(=O)CCC1(Cc2ccc(F)cc2)CCC(=O)N1 (centres undefined) | 3 | 0
CN(C)c1ccc(/C=N\n2c(=O)[nH][nH]c2=O)cc1 | -3 | -3
O=C(C1CCC1)N(c1ccc(O)cc1)S(=O)(=O)c1ccccc1 | -5 | -7
COc1cccc(-c2cc3nc(NCCCN(C)C)n(C)c(=O)c3s2)c1 | 6 | 1
CCNC(=O)C1(C)CCN1Cc1ccc(OC)c2ccccc12 (centres undefined) | 8 | 6
CCC(C#N)NC(=O)CCc1ccc(C(=O)OC)cc1 (centres undefined) | 6 | 3
Cc1ccc2nc(C)c(NC(=O)CC3CCCCC3)c(=O)n2c1 | 3 | 1
COCCCNCc1c(-c2ccccc2)noc1N(C)C(C)C | 4 | 5
CC(/C=C1\N=C(c2ccc(Cl)c([N+](=O)[O-])c2)OC1=O)=C\c1ccccc1 | -2 | -1
Cc1cc(C(=O)NCc2ccc(F)cc2)nc2cc(-c3ccccc3)nn12 | 2 | 6
O=C(c1cccc(F)c1)N(Cc1ccco1)Cc1nc2cc(Cl)ccc2o1 | -1 | -7
Cc1cccc(CCC(=O)NC2CCN(C(=O)c3ccco3)CC2)c1 | 0 | 0
CCOC(=O)C(c1cc(OC)ccc1OC)C1C=CC(NC(=O)c2cc(Cl)ccc2F)C1 (centres undefined) | 0 | -5
O=C(C1CC1)N1CCN(c2nc(Cc3ccccc3)nc3onc(-c4ccccc4)c23)CC1 | 1 | 15
CCc1oc(C(=O)N(c2ncc(C(=O)OC)s2)C2CC2)cc1C | 0 | 9
N#Cc1ccc(N2CCN(C(=O)C(=O)N3CCOCC3)CC2)c(F)c1 | 18 | 16
O=C(CSc1nc(-c2cccs2)c(-c2cccs2)[nH]1)N1CCNC1=O | 3 | 2
O=C(CNCc1ccccc1-n1cccn1)NCc1ccccc1F | 19 | 6
CC1=C(C/C=C(\C)CCCC(C)CCCC(C)CCCC(C)C)C(=O)c2ccccc2C1=O (centres undefined) | -4 | -7
OCC1(Cc2ccccc2Cl)CCN(Cc2c(O)ccc3ccccc23)CC1 | 1 | -3
Cc1cc(N2C(=O)CC(N3CCC(C(=O)N4CCOCC4)CC3)C2=O)no1 (centres undefined) | 2 | 37
COc1ccccc1N1CCN(C(=O)c2cc(-c3cccn3C)nn2-c2ccccc2Cl)CC1 | 14 | 13
O=C(COC(=O)C=Cc1ccccc1[N+](=O)[O-])Nc1ccc(N2CCCCC2)cc1 | 18 | 6
COc1c(Cl)c(OC)c2c(O)coc2c1Cl | 6 | 1
CC1C(=O)N(c2ccc([N+](=O)[O-])cc2)CCN1C(=O)c1ccc(Cl)c(Cl)c1 (centres undefined) | -4 | -5
CC(SCc1cc(Cl)c2c(c1)OCCO2)C(=O)N1c2ccccc2NC(=O)C1(C)C (centres undefined) | 1 | 0
Cc1cc(C)n(CC(=O)NCc2ccccc2F)n1 | -1 | -1
CC1(C)C[C@H]2C[C@@H](O)[C@H](N3CCN(c4ccncc4)CC3)[C@]2(O)CO1 | 2 | 10
COc1ccc(S(=O)(=O)N(C)C)cc1NC(=O)c1ccccc1 | -2 | -3
N#Cc1c2c(c(N3CCN(CCO)CC3)n3c1nc1ccccc13)CCCC2 | 5 | 2
Cc1nnc(SCCC(=O)N2CCC2c2ccc(F)cc2)s1 (centres undefined) | -4 | -11
CC(C)OCc1ccc(C(=O)Nc2ccccc2Cl)cc1 | -2 | -7
CC(=O)N(C)c1ccc(Nc2c(C)cc(C)cc2C)c2c1C(=O)c1ccccc1C2=O | 4 | 2
CN1CC2CCCC3(C1)C(=O)NC1(CCCCC1)N=C23 (centres undefined) | 9 | 1
COc1ccccc1-n1cnnc1Cc1ccncc1 | 1 | -3
O=C1c2ccccc2NC(c2cccc3c2OCO3)N1c1ccc(Cl)cn1 (centres undefined) | -2 | -5
COc1cc(OC)cc(C(=O)N(CCCN2C(=O)c3cccc4cccc(c34)C2=O)c2cccc(OC)c2)c1 | -2 | -3
CCc1ccc(C2c3cccn3CCCN2Cc2ccc(OC)c(O)c2)cc1 (centres undefined) | 0 | 8
COCC(=O)Nc1ccc2oc(-c3cccs3)nc2c1 | 2 | 14

Continued; the last 2 above are carried over.
SMILES | NPYLR7 ag | NPYLR7 ag max-min
CCc1ccc(C2c3cccn3CCCN2Cc2ccc(OC)c(O)c2)cc1 (centres undefined) | 0 | 8
COCC(=O)Nc1ccc2oc(-c3cccs3)nc2c1 | 2 | 14
CC(C)(C)Nc1c(-c2ccc(C(F)(F)F)cc2)nc2ccc(Cl)cn12 | -7 | 0
CCC(C)N(Cc1c(-c2ccccc2F)noc1N1CCOCC1)C(=O)c1cccs1 (centres undefined) | 7 | 11
COC(=O)C(C)n1cnc2c(nnn2-c2ccc(C)cc2)c1=O (centres undefined) | 8 | 12
CCOCCCN1COc2ccc3c(=O)c(-c4ccccc4)coc3c2C1 | -9 | -14
COc1ccc(Nc2nc(N3CCOCC3)nc(N3CCOCC3)n2)cc1 | 12 | 9
CCCNC(=O)CN1CN(c2ccccc2)C2(CCN(C(=O)Nc3ccc(Cl)cc3)CC2)C1=O | 37 | 33
CC(=O)NCCNC(=O)c1ccc2nc(C)c(N(C)C(=O)CCc3ccccc3)n2c1 | 23 | 17
N#CCc1c(C#N)c(N)nc(Nc2ccc(F)cc2F)c1C#N | 4 | 3
CC(C)CC(=O)N1CC(=O)N(CCCc2ccccc2)CC(O)C1 (centres undefined) | -7 | -6
Cc1occc1C(=O)N(Cc1ccccc1O)CC1CCCO1 (centres undefined) | -12 | -13
COC(=O)c1ccc(C(=O)N(CCCN(C)C)c2nc3c(F)cc(F)cc3s2)cc1 | 8 | 6
COc1ccc2c(C)c(C(=O)N3CCC(Nc4ncccn4)CC3)oc2c1 | 4 | 1
CN(C)S(=O)(=O)N1CCC(Oc2ccc(C(=O)N3C[C@@H]4CCC[C@H]3C4)cc2)CC1 | 4 | 9
Cc1[nH]n(-c2ccccc2)c(=O)c1C(=O)c1ccc(S(=O)(=O)N2CCOCC2)cc1 | 14 | 6
O=C(C#Cc1ccccc1)N1CCc2c([nH]c3ccccc23)C1c1ccccn1 (centres undefined) | 4&-7 | -4&-10
O=S1(=O)CCn2c(ncnc2=Nc2cccc(C(F)(F)F)c2)N1 | -4 | -8
O=C(CNC(=O)c1cccs1)NCc1ccc(Cl)cc1 | 1 | 8
COc1ccccc1OCc1cc(C(=O)NC2CCNCC2)n[nH]1 | 3 | -6
CNC(=O)CC1C(=O)NCCN1Cc1cccc2c1OCO2 (centres undefined) | 2 | 1
CN(C)CCCN(C(=O)c1ccc(Cl)s1)c1nc2ccc(F)cc2s1 | -1 | -3

Random excerpt: 6 records from the list, in no set order.
SMILES | NPYLR7 ag | NPYLR7 ag max-min
CC(C)(C)Nc1c(-c2ccc(C(F)(F)F)cc2)nc2ccc(Cl)cn12 | -7 | 0
CN(C)CCCN(C(=O)c1ccc(Cl)s1)c1nc2ccc(F)cc2s1 | -1 | -3
N#CCc1c(C#N)c(N)nc(Nc2ccc(F)cc2F)c1C#N | 4 | 3
CCCNC(=O)CN1CN(c2ccccc2)C2(CCN(C(=O)Nc3ccc(Cl)cc3)CC2)C1=O | 37 | 33
CNC(=O)CC1C(=O)NCCN1Cc1cccc2c1OCO2 (centres undefined) | 2 | 1
CCOCCCN1COc2ccc3c(=O)c(-c4ccccc4)coc3c2C1 | -9 | -14

The results go on.
SMILES | NPYLR7 ag | NPYLR7 ag max-min
COc1ccc(C)c2sc(N(Cc3ccccn3)C(=O)CCS(=O)(=O)c3ccccc3)nc12 | -1 | -4
CCn1c2ccccc2c2nnc(SCC(=O)N3CCCCC3)nc21 | 6 | 10
Cc1noc(-c2ccc(C(C)(C)C)cc2)c1C(=O)NC(C)c1ccc(Br)cc1 (centres undefined) | -1 | 3
Cc1cc(C)nc(NS(=O)(=O)c2ccc(NC(=O)c3ccccc3I)cc2)n1 | -8 | -13
COc1ccc(N2C(=O)CSC2c2cccc(N)c2)c(OC)c1 (centres undefined) | -11 | -4
N#Cc1ccc(Cl)cc1NC1CCCCC1 | -11 | -17
COc1ccc(CCN2CCC(CN(C)C(=O)c3sccc3Cl)CC2)cc1 | -11 | -9
O=C(NN=C1CCN(c2ccccc2)CC1)C1CC1 | -3 | -5
COc1ccc(OC)c(C2Nc3ccccc3N=C3CC(C)(C)CC(=O)C32)c1 (centres undefined) | -4 | -4
CC(C)OCC(O)CN(Cc1c(-c2ccccc2)noc1N1CCOCC1)CC1CCCO1 (centres undefined) | 9 | 14
CCOC(=O)c1nn(CC(C)C)c2c1CN(C(=O)c1csc3c1CCCC3)CC2 | -11 | -18
Cc1ccc(CN(Cc2ccc(F)cc2)C(=O)CN(C(=O)c2cccs2)C(C)C)s1 | -9 | 1
Cc1ccc2cc(NC(=O)C3(C)CCCN(C(C)C)C3)ccc2n1 (centres undefined) | -1 | -4
Nc1nnc(-c2ccccc2)s1 | -5 | -6
CCCCNC(=O)C1(C)CCN1C(=O)c1ccncc1 (centres undefined) | 3 | -1
CCn1cnnc1CCNC(=O)c1ccc2c(c1)OCO2 | 12&1 | 4&-1
N[C@H](C(=O)N1CCc2c(nc(-c3ccccc3)[nH]c2=O)C1)c1ccccc1 | 10 | 8
CC1CCN(C(=O)c2cn(C)c3c(=O)n(-c4ccc(Cl)cc4)c(=O)[nH]c23)CC1 | 4 | -1
Cc1ccccc1OCCN(C)c1ccc(S(=O)(=O)N2CCOCC2)cn1 | -1 | -2
CN(C)/C=C1/N=C2C=C(c3ccccc3)c3cc(Cl)ccc3N2C1=O | 4 | 2
COc1ccccc1NC(=O)c1nn(-c2ccc(C)cc2)c(=O)cc1OC | 5 | -2
N#Cc1ccsc1NC(=O)C1CC(=O)N(C2CCCC2)C1 (centres undefined) | 6 | 2
CCc1cccc2c(C(CC(=O)NCc3ccccn3)c3ccccc3)cn(CC)c12 (centres undefined) | 0 | 11
CC(C)C1=NOC(C(=O)N(C)CCC(C)(C)O)C1 (centres undefined) | 32 | 17
CCOP(O)(=NNc1ccccc1)OCC | -5 | -13
Cc1ccsc1C(=O)NCCC1CN(Cc2ccco2)CCO1 (centres undefined) | 0 | 9
CCn1cc(SCC(N)=O)c2ccccc21 | 3 | 0
C=CCOC1C[C@](OCc2ccc(F)cc2)(C(=O)NC(C)C)C[C@@H](O)[C@H]1O (some centres undefined) | 37 | 40
O=C(Cc1ccccc1)N(CCn1cccn1)c1nc2c(Cl)cccc2s1 | -17 | -21
COC(=O)CCc1c(C)nn(-c2ccc(C(=O)NC3CCC(C)CC3)cc2)c1C (centres undefined) | -3 | -9
C=CCn1c(C)cc(C(=O)CC#N)c1C | -3 | -8
CN1CCCC(CN2CCN(c3c4c(nc5ncnn35)CCCC4)CC2)C1 (centres undefined) | 24 | 13
CCc1nc2ccc(C(=O)NCc3ccc(OC)cc3)cn2c1N(CC)C(=O)NCCc1ccccc1 | -25 | -26
CCC(CC)NCC(c1cccnc1)N1CCOCC1 (centres undefined) | -2 | 11
C/C=C/c1ccc(OCC(O)CN2CCCC2c2ccsc2)c(OC)c1 (centres undefined) | -1 | -1
Cc1ccc(NC(=O)Cn2c3ccccc3c3ncn(Cc4ccccc4)c(=O)c32)cc1 | -3 | -5
CCNC(=O)c1noc(-c2cc(C(C)C)c(O)cc2O)c1-c1ccc(CN2CCOCC2)cc1 | -8 | -15
Cc1nnc(CN(C)C2CCC(NC(=O)OC(C)(C)C)CC2)o1 (centres undefined) | 5 | 3
O=C(NCCC(c1ccccc1)c1ccccc1)C1CCC(=O)N(C2CCCC2)C1 (centres undefined) | 0 | -3
Cc1nc(SCc2ccccc2Cl)c2c(=O)n(C)c(=O)n(C)c2n1 | 10 | 13

The final six compounds of the section before open the next one.
SMILES | NPYLR7 ag | NPYLR7 ag max-min
C/C=C/c1ccc(OCC(O)CN2CCCC2c2ccsc2)c(OC)c1 (centres undefined) | -1 | -1
Cc1ccc(NC(=O)Cn2c3ccccc3c3ncn(Cc4ccccc4)c(=O)c32)cc1 | -3 | -5
CCNC(=O)c1noc(-c2cc(C(C)C)c(O)cc2O)c1-c1ccc(CN2CCOCC2)cc1 | -8 | -15
Cc1nnc(CN(C)C2CCC(NC(=O)OC(C)(C)C)CC2)o1 (centres undefined) | 5 | 3
O=C(NCCC(c1ccccc1)c1ccccc1)C1CCC(=O)N(C2CCCC2)C1 (centres undefined) | 0 | -3
Cc1nc(SCc2ccccc2Cl)c2c(=O)n(C)c(=O)n(C)c2n1 | 10 | 13
Cc1ccc(C(C)NCc2cn(CCC(N)=O)c3ccccc23)cc1C (centres undefined) | -1 | -5
O=C(C1CC1)N1CCCC(OCC2CC2)C1 (centres undefined) | -4 | -3
O=C(O)c1cc([N+](=O)[O-])c[nH]1 | 1 | -2
Cc1nonc1CC(=O)NC1CC(=O)N(CCc2ccccc2)C1 (centres undefined) | 8 | 5
CN(Cc1cn(C)nc1-c1ccccc1)C1CCCN(Cc2ccccc2F)C1 (centres undefined) | 3 | -1
COc1cn(C)c(C(=O)Nc2cccc(Cl)c2C)cc1=O | 3 | 1
CCC1(C)CC(=O)NC1=O (centres undefined) | -11&0&-1 | -14&-5&-20
CCN1C(=O)C2(CCCCC2)NC1c1cc2cccc(C)c2nc1Cl (centres undefined) | 0 | 1
Cc1cnccc1N1CCCN(Cc2c(CO)cnc(C)c2O)CC1 | -4 | -6
Cc1ccc(CNCc2cccnc2Oc2ccccc2)o1 | 2 | -3
Cc1ccc(C)c(C(=O)NC(C)c2ccccc2OC(F)F)c1 (centres undefined) | 6 | 4
CCOCCCn1c(SCc2nc3ccccc3[nH]2)nc2cc(S(=O)(=O)N3CCOCC3)ccc21 | 8 | 3
O=C(N/N=C\c1cn[nH]c1-c1ccccc1)C1CC1(c1ccccc1)c1ccccc1 (centres undefined) | -9 | -14
Cn1cc(S(=O)(=O)Oc2ccc(Cl)cc2)c(=O)n(C)c1=O | 1 | -2
CC1(C(=O)NCc2cccs2)CCN1C(=O)Cc1cccc2ccccc12 (centres undefined) | -4 | -4

Grouped by structure, the compounds so far containing a CF3 group
SMILES | NPYLR7 ag | NPYLR7 ag max-min
CC(C)(C)Nc1c(-c2ccc(C(F)(F)F)cc2)nc2ccc(Cl)cn12 | -7 | 0
O=S1(=O)CCn2c(ncnc2=Nc2cccc(C(F)(F)F)c2)N1 | -4 | -8

From PubChem

Some of the compounds tested, so the mix of outcomes need not match the whole.
